# Source: PubChem (several laboratories)
# Vif A3G = inhibitors of Vif binding to APOBEC3G peptide, primary screen, biochemical, TR-FRET, GST-Vif 1-94, biotin-A3G peptide, dose response retest (AID 1117319) | TR-FRET GST-Vif / biotin-A3G peptide binding; higher % means a stronger effect; test concentration not given here; strong numbers were not always called active | inhibition, %, or IC50 in µM where a hit was titrated | 260,000 compounds, 0.57% hits;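 active = above the screen mean plus three standard deviations and confirmed in dose response; inconclusive = results disagree or hit not tested in dose response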;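 note: Vif residues 1-94 fused to GST binding biotinylated APOBEC3G peptide 110-148; 0% = full assay without inhibitor and 100% = GST in place of GST-Vif; retest series ran down from 100 µM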
# RanGTP-Imp inh = disruptors of Ran-importin-beta complex formation – biochemical, FRET, CFP-Ran, YFP-importin-beta, homogeneous, primary screen; cell-free CFP-Ran/YFP-importin-beta FRET ratio; inhibition, % (no concentration beside the values); 300,000 compounds, 1.1% hits;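 active = most replicates above 15%; inconclusive = exactly half above 15%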;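 note: 0% = DMSO wells and 100% = Ran loaded with GDP instead of GTP; wells of about 40 µL received 100 nL stock; the first replicate is given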
# LANA-H2A inh = blocks KSHV LANA binding to histone H2A/H2B; inhibition, % (no concentration beside the values); 320,000 compounds, 0.6% hits; cell-free LANA-H2A/H2B peptide, fluorescence polarization; in the data active = inhibition mostly above about 10%, no sharp cut-off; inactive = mostly below about 6.7%;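 note: stock transfer was 7.5 nL into about 10 µL; 0% = median of vehicle wells and 100% = median of positive control wells; one replicate is shown; the record names a cut of 25% in any replicate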
# Beta2AR agonist = agonists of human beta-2 adrenergic receptor inducing internalization; P07550; Am2.2-beta2AR cells, FAP receptor internalization, flow cytometry; reference of the scale not given here; response, % (no concentration beside the values); 340,000 compounds, 0.43% hits;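 active = response above a set limit, near 3 SD of response in nonfluorescent compounds, cut at about 42% in these data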;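 note: stock transfer was 100 nL into about 11 µL; a reference agonist was the positive control; negative values mostly stem from fluorescent compounds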
# Target sequence (P07550 whole entry, looked up): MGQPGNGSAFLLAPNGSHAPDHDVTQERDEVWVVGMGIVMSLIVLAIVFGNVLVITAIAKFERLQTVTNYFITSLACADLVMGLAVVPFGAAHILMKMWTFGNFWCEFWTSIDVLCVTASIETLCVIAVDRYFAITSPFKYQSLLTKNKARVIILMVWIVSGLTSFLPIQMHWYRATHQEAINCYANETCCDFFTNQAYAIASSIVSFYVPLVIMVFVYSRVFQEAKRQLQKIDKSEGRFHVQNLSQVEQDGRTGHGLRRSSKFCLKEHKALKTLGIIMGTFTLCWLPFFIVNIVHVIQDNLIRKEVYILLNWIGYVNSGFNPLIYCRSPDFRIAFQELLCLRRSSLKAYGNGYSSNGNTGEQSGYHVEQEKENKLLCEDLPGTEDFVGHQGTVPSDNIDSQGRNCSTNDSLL
# ALR inh = inhibitors of human sulfhydryl oxidase ALR. P55789. purified ALR, DTT oxidation, H2O2 HRP-luminol luminescence. inhibition, % (test concentration not listed). 290,000 compounds, 3.8% hits. AID 485317;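 active = mean and each replicate at 75% or more; inconclusive = only one of the two met; inactive = neither met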;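 note: stock transfer was 7.5 nL into about 7.5 µL; 0% = neutral wells and 100% = wells with inactivated enzyme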
# Target sequence (P55789 whole entry, looked up): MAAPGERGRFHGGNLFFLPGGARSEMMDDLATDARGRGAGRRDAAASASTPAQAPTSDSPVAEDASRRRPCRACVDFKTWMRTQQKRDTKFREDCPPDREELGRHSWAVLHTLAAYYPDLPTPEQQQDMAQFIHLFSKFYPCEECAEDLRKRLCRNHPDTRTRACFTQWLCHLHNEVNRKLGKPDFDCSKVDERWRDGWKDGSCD
# Calb FLC = affects C. albicans growth with fluconazole. C. albicans CaCi-2 (fluconazole-resistant clinical isolate) + fluconazole, Alamar Blue growth, 48 h. growth inhibition, % (no concentration beside the values). 300,000 compounds, 0.57% hits;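 active = most replicates above 75%; inconclusive = exactly half above 75%; inactive = most below 75%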;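 note: all wells also contain fluconazole at 8 µg/ml as a sub-toxic cotreatment; 0% = median of DMSO wells and 100% = median of geldanamycin control wells; wells of about 8 µL received 7.5 nL stock; the first replicate is given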
# HNF4A DNA FP = change in binding of human HNF4 alpha to DNA; activity change, % at 10 µM; P41235; HNF4a-FITC DNA binding, fluorescence polarization, 1 h; 360,000 compounds, 0.3% hits; in the data active = activity change above about 30%, passing the limit was not always enough;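 note: controls were the assay level and a saturating level of protein; the project sought stronger binding though the title names inhibitors; some compounds called inactive have numbers as strong as hits; positive values seem to mean higher polarization but the record does not say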
# Active calls of the source: *; ? = inconclusive; . = no result given; & = joins results of further samples. Compounds as they come; 6.3% or so of the library scored in one or more.
molecule	Vif A3G	RanGTP-Imp inh	LANA-H2A inh	Beta2AR agonist	ALR inh	Calb FLC	HNF4A DNA FP
COc1ccc(NC(=O)C2CCCN2C(=O)NC2CCCCC2)cc1 (stereo not given)	7.3%	-2.3	8.4	-4.7	-13.9	-22.2	1.2
CC(C)c1ccc(S(=O)(=O)N2CCC(C(=O)NCc3ccco3)CC2)cc1	2.6%	.	.	-0.5	.	.	-1.0
COc1cccc(NC(=O)Cn2c(=O)n(CC3CCCO3)c(=O)c3ccccc32)c1 (stereo not given)	0.3%	2.8	3.0	9.8	-5.9	8.8	-2.6
C/C(=N\NC(=O)c1cccnc1)c1ccc(Br)cc1	.	3.2	-3.3	0.9	-2.7	-9.8	2.9
CN(C(=O)CN1CCN(c2cnn(-c3ccccc3)c(=O)c2Cl)CC1)C1CCS(=O)(=O)C1 (stereo not given)	.	.	-1.7	7.8	-5.8	.	0.3
Clc1ccc(-c2nnc(-c3ccccc3)c(N3CCSCC3)n2)cc1	-2.9%	-4.8	-0.2	-5.4	47.2	7.1	3.3
Cc1ccccc1OCC(=O)Nc1c2c(nn1C(C)(C)C)CS(=O)(=O)C2	.	5.4	-1.2	-0.4	-6.8	5.3	-0.5
CC1CCc2cc(F)cc3c(=O)c(C(=O)O)cn1c23 (stereo not given)	30.4%	2.7	-2.4&-11.2	0.8	.	.	-4.0
COc1cc2c(cc1OC)CN(C(=O)CN(C)S(=O)(=O)c1ccc(NC(C)=O)cc1)CC2	1.1%	-0.4	1.6	8.0	-0.1	7.9	1.2
CCOC(=O)/C(C#N)=C\c1ccc(O)c(OC)c1	8.1%	5.5	-1.1	10.2	98.9*	16.6	5.3
COc1ccc(-n2c(C(C)n3nc(C)c([N+](=O)[O-])c3C)n[nH]c2=S)cc1 (stereo not given)	9.8%	2.7	-5.9	4.7	72.8	3.7	-1.0
COc1ccc(NC(=O)Nc2sc(=S)n(C)c2C)cc1	13.8%	.	1.8	-1.3	40.3	.	0.9
O=C(O)c1ccc(Cl)c(S(=O)(=O)N(Cc2ccccc2)c2ccc(Cl)cc2)c1	.	-1.1	-0.8	4.1	39.0	13.9	-8.1
CC(=O)Nc1ccc(NC(=O)COC(=O)CCNS(=O)(=O)c2c(Cl)cccc2Cl)cc1	1.9%	.	.	1.1	.	.	4.0
O=C1NC2=C(CCc3ccccc32)C(c2ccccc2)N1 (stereo not given)	.	0.8	-0.6	-4.2	18.1	-3.3	-0.1
Cc1ccc2[nH]c(=O)c(-c3noc(CC(C)C)n3)cc2c1	8.8%	0.3	6.2	-1.6	-3.4	9.1	5.8
Cc1cc(=O)oc2cc(OCC(=O)N3CCN(c4ccc(F)cc4)CC3)c(Cl)cc12	.	0.2	6.1	-3.9	1.1	-3.5	0.0
CCN(CC(=O)NC(=O)NCc1ccccc1)CC(=O)Nc1cc(Cl)ccc1C	.	.	-5.2	-4.8	-0.1	.	-0.1
CCN(CC(=O)Nc1ccccc1C(F)(F)F)C(=O)/C=C/c1ccc(Cl)c([N+](=O)[O-])c1	-0.4%	?	1.5	-1.8	-2.4	13.6	0.6
CCOc1cccc(/C=N/NC(=O)CC2C(=O)NN=C2C)c1O (stereo not given)	.	-1.8	1.6	-1.2	98.2*	-10.6	0.6
Cc1cccn2c(=O)nc(SCC(=O)NCc3ccco3)nc12	1.4%	-0.9	-0.2	-5.5	1.4	0.8	-1.7
Cc1ccc(NC(=O)CN(C)S(=O)(=O)c2cccc3cccnc23)cc1F	6.4%	4.7	-1.7	5.0	3.2	-10.5	-1.1
Brc1ccccc1-c1ccccc1	.	.	1.4	-1.0	3.8	.	1.5
CSc1nc2ccc(NC(=O)c3ccco3)cc2s1	29.4%	-0.6	0.5	-29.0	-4.7	2.3	-1.1
O=C(NC1CC1)c1ccc(-n2cccc2)cc1	-1.5%	3.6	99.4*	5.8	-0.7	10.5	1.7
COCCN(C(=O)c1snc(C(N)=O)c1N)C(C(=O)NC1CCCCC1)c1ccc(N(C)C)cc1 (stereo not given)	.	3.0	7.4	6.7	13.3	12.5	1.5
COc1ccc(-n2nc(C(=O)NCC3CCCO3)c3ccccc3c2=O)cc1 (stereo not given)	7.9%	4.5	-5.9	-6.1	-4.5	-3.6	-0.9
CCN(CC)c1ccc2cc(S(=O)(=O)c3ccc(Cl)cc3)c(=O)oc2c1	-6.9%	128.3*	38.5*	-4.8	-139.6	9.1	-85.4
Cc1ccccc1NC(=O)N1CCCC1C(=O)NCc1ccccc1 (stereo not given)	.	0.3	0.1	-3.4	.	-0.5	-1.6
CC(C)CCNC(=O)c1cccc(Cl)c1	3.8%	5.0	2.0	1.4	25.0	7.6	0.8
O=c1cc(-c2ccccc2)nc(SCc2ccccc2F)[nH]1	.	0.5	-5.3	-10.5	-1.0	-7.1	-4.4
Cc1ccc(N(C(=O)CNC(=O)c2ccco2)C(C(=O)NC2CCCCC2)c2cccnc2)cc1 (stereo not given)	.	1.3	-1.6	-4.9	-1.8	-18.6	-3.5
O=C(CSc1nc2ccccc2c(=O)n1Cc1ccc(C(=O)NC2CC2)cc1)NCc1ccco1	2.3%	3.0	-0.5	-17.5	-4.2	33.8	5.0
O=C(Nc1cccc(C(F)(F)F)c1)C1CCN(S(=O)(=O)c2cnc[nH]2)CC1	26.0%	?	1.7	-6.1	-11.5	2.8	-3.0
CCOC(=O)C1CCN(C(=O)COC(=O)c2ccc(=O)n(Cc3ccccc3)n2)CC1	-2.4%	-3.9	-0.1	8.3	.	-4.0	0.7
Cc1nn(C)c(C)c1CN(Cc1nc(-c2cc(F)ccc2F)oc1C)C1CC1	.	-0.5	0.7	-3.6	-1.2	-11.2	-0.6
Cc1ccc(NC(=O)c2ccccc2NC(=O)Cc2ccccc2)cc1	-3.9%	1.4	-4.0	-9.3	-3.5	-5.7	-0.6
Cc1ccc(-n2nc3c(=O)n(CCCC(=O)NCc4cccc(Cl)c4)nc(C)c3c2C)cc1	.	-0.8	2.1	9.9	.	39.4	-0.8
COC(=O)c1c(NC(=O)Cn2cc([N+](=O)[O-])cn2)sc2c1CCC2	?	-0.2	2.0	11.6	69.8	-14.5	1.2
CC(=O)Nc1ccc(NS(=O)(=O)c2ccc3c(c2)NC(=O)CC(=O)N3)cc1	.	0.1	7.3	13.2	-6.7	5.9	1.3
CN(C)S(=O)(=O)c1cccc(NC(=S)Nc2ccc3cn[nH]c3c2)c1	.	-1.3	3.1	14.3	22.1	-4.0	-0.5
NC(=O)c1cc[n+](CC(=O)c2ccc(NC(=O)c3ccccc3)cc2)cc1	-2.8%	.	-2.8	0.0	5.9	25.5	1.9
O=C(NCc1ccc(F)cc1)c1cnc2n(c1=O)CCS2	2.5%	-3.4	-2.7	-8.8	-8.0	2.7	-1.7
CCN(CC(=O)NCc1cccs1)S(=O)(=O)c1cccc(Br)c1	0.3%	.	3.7	0.1	.	.	-0.6
COC(=O)c1sccc1NC(=O)CSc1cccc(Cl)c1Cl	-3.9%	8.2	-0.4	-3.1	-15.7	-2.8	1.3
Cc1cc(C)nc(N2CCC(C(=O)Nc3ccc4c(c3)CCC4)CC2)n1	3.2%	-2.5	2.6	-3.9	-1.6	-36.2	0.0
CCOc1ccc(C(=O)NCCc2ccc3c(c2)OCCO3)cc1	-1.1%	-0.3	-2.9	3.3	-10.0	-4.0	-0.5
CCn1c(SCC(=O)NNC(=S)Nc2ccc(C)cc2)nnc1-c1ccc(Cl)cc1	.	3.7	2.8	-0.7	96.5*	-1.9	0.2
Cc1cc(C)c(S(=O)(=O)c2cc(F)ccc2C)c(Cl)n1	4.9%	-1.0	2.7	-7.4	-2.2	1.8	-6.2
COc1cc(NC(=S)Nc2cccc(C)n2)cc(OC)c1OC	-20.8%	-0.1	2.7	2.3	-2.3	12.1	5.7
CC(=O)Nc1ccc(C(=O)OCC(=O)N(c2ccccc2)C2CCCCC2)cc1	-8.0%	.	-1.5	5.9	-7.9	.	2.8
O=C(COc1ccccc1)Nc1ccc([N+](=O)[O-])cc1	-0.3%	-3.9	-1.2	-7.8	-4.0	5.6	2.8
COc1ccc(NC(=O)CSCC(=O)NCCc2ccccn2)cc1	10.2%	3.3	-1.3	-7.8	97.7*	7.9	-3.6
COc1ccc(CNC(=O)COC(=O)c2cncc(Br)c2)cc1	.	?	12.6	-6.9	-3.9	-15.9	0.4
O=C(Cc1ccc(-n2c(=O)c3sccc3n(Cc3ccc(F)cc3)c2=O)cc1)NCc1ccco1	-2.2%	?	1.4	-4.6	.	11.2	-1.5
c1ccc(-c2nccc(-c3ccco3)n2)nc1	.	-1.8	1.3	-2.0	3.4	-2.4	4.7
CCN(C(=O)c1cc(Cl)ccc1OC)C1CCCCC1	19.6%	-4.6	-0.4	8.5	-9.1	7.5	0.8
CC(OC(=O)CNC(=O)c1ccc(Cl)c([N+](=O)[O-])c1)C(=O)NC1CCCCC1C (stereo not given)	6.7%	.	.	5.0	.	.	-0.1
CC(C)(C)n1cnc2cc(NC(=O)c3ccco3)ccc21	.	3.5	-0.1	-13.0	-29.1	-2.7	-1.9
CCCCN(C(=O)CN1C(=O)C2CCCCC2C1=O)c1c(N)n(CCC)c(=O)[nH]c1=O (stereo not given)	5.3%	6.7	-7.2	-0.8	-0.7	-0.2	-8.9

# (cont.)
molecule	Vif A3G	RanGTP-Imp inh	LANA-H2A inh	Beta2AR agonist	ALR inh	Calb FLC	HNF4A DNA FP
O=c1c2nnn(-c3ccc(Br)cc3)c2ncn1Cc1ccccn1	-2.9%	-1.5	-0.5	-2.2	-5.0	-17.5	1.6
O=C(NCC(c1ccco1)N1CCCCC1)c1cc2c(s1)CCCC2 (stereo not given)	-1.3%	.	-0.3	-1.2	-17.1	.	1.5
COc1ccccc1NC1CCCCC1NS(=O)(=O)c1ccccc1 (stereo not given)	-1.8%	0.3	-2.7	-2.0	49.0	11.5	0.4
N#Cc1c(NC(=O)c2cccnc2)sc2c1CCC2	?	6.0	-0.7	-1.7	8.0	61.3	1.9
O=C(NCC1CCCCC1)c1cc([N+](=O)[O-])ccc1Cl	-6.3%	1.4	-4.9	-17.5	2.4	-5.1	3.6
C=CCN(C(=O)COC(=O)c1cc[n+]([O-])cc1)c1nc(-c2ccccc2)cs1	.	.	-0.1	-2.0	.	.	0.0
Nc1ccc(Oc2ccccc2-c2ccccc2)cc1	.	-1.4	2.3	-3.9	98.7*	-3.3	-2.3
CCC1(c2ccc(F)cc2)NC(=O)N(CC(=O)Nc2ccc(C(N)=O)cc2)C1=O (stereo not given)	.	4.3	-1.8	6.7	-4.1	0.8	-2.4
CCCCn1c(SCC(=O)NCc2ccco2)nc2c1c(=O)n(C)c(=O)n2C	1.8%	2.2	4.3	-2.7	-15.3	-1.9	0.2
CC(C)(C)n1ncc2c(=O)n(Cc3cc(F)c(Cl)cc3Cl)cnc21	.	.	2.4	-6.9	0.5	.	3.2
COc1cc(OC)cc(-c2c(C#Cc3ccsc3)c3cc(-c4ccc(OC)cc4F)ccc3n2C)c1	.	.	1.7	-2.6	-17.2	.	14.2
CC(C)c1ccc(C(=O)CC2(O)C(=O)N(CN3CCOCC3)c3ccccc32)cc1 (stereo not given)	-5.8%	4.0	1.7	0.9	0.4	-38.6	-1.0
CCC(C)(C)NC(=O)C(c1cccc(OC)c1)N(C(=O)CNC(=O)c1cccs1)c1cccnc1 (stereo not given)	.	-0.4	-2.9	1.6	-15.5	1.2	-1.3
